TAR Tat displ: HIV-1 TAR-Tat binding disruption. HIV-1 TAR RNA, Tat peptide displacement FRET; active compounds read high. z-score (test concentration not listed). 100,000 compounds, 0.6% hits. AID 1259389;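 further: score is relative to mean and SD of negative controls; some compounds called inactive have numbers as strong as hits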
CDC25B-CDK2 inh: human CDC25B-CDK2/CyclinA binding inhibition | P30305+P24941 | HTRF CDC25B-CDK2/CyclinA binding, anti-His/anti-Flag; active compounds read high | z-score (no concentration beside the values) | 94,000 compounds, 0.72% hits;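 further: score is relative to mean and SD of negative controls; strong numbers were not always called active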
An asterisk follows results filed as active; / = no result given.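 How the source made its calls: active means z-score from 3 up in half or more of its runs; inactive means the rest.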

The opening three records, ahead of the listing:
cpd	Molecule	TAR Tat displ	CDC25B-CDK2 inh
1	Cc1ccc(C2CC(=O)Nc3c2c(C)nn3-c2nncc(-c3ccccc3)n2)cc1 (stereo not drawn)	1.2	-0.02
2	COc1ccc(-c2nc3sc(CCNS(=O)(=O)c4c(C)noc4C)c(C)n3n2)cc1	1	/
3	CCCN1C(=O)C(Cc2nc3ccccc3c(=O)[nH]2)c2ccccc21 (stereo not drawn)	0.17	-2.5

The list itself (from the top)
cpd	Molecule	TAR Tat displ	CDC25B-CDK2 inh
1	Cc1ccc(C2CC(=O)Nc3c2c(C)nn3-c2nncc(-c3ccccc3)n2)cc1 (stereo not drawn)	1.2	-0.02
2	COc1ccc(-c2nc3sc(CCNS(=O)(=O)c4c(C)noc4C)c(C)n3n2)cc1	1	/
3	CCCN1C(=O)C(Cc2nc3ccccc3c(=O)[nH]2)c2ccccc21 (stereo not drawn)	0.17	-2.5
4	Cc1cc2c(cc1S(=O)(=O)Nc1cccc(F)c1)OCCN2C	3.1	/
5	CN(Cc1nc2ccccc2n1C)C(=O)c1ccco1	2.8	1.5
6	Fc1ccc(CNc2ncnc3sc4c(c23)CCCC4)cc1	0.9	-1.3
7	CCn1c2c(c(=O)[nH]c1=O)C(c1cccc(OC)c1)C1=C(N2)c2ccccc2C1=O (stereo not drawn)	-1.6	-2.3
8	O=C1COc2cc(S(=O)(=O)CCC(=O)N3CCOCC3)c(Cl)cc2N1	1.2	/
9	O=C(Nc1cccc(Cl)c1)c1cn(-c2ccccc2)cn1	0.12	/
10	Cc1onc(-c2c(Cl)cccc2Cl)c1C(=O)NOC(=O)c1cccs1	/	-2.2
11	O=C(CSc1cn(CC(=O)N2CCCCC2)c2ccccc12)NC1CCCCC1	2	/
12	O=C(CSc1nc2ccccc2c(=O)[nH]1)Nc1ccc2c(c1)OCO2	3.3	/
13	Cc1ccc(S(=O)(=O)c2cnc3ccccc3c2N2CCN(C)CC2)cc1C	-0.38	-0.97
14	COc1ccc(CSc2nc(N)c3c4c(sc3n2)CSC(C)(C)C4)cc1	0.33	-3.7
15	Cc1ccc2oc(C(=O)Nc3nc(-c4ccc(C)s4)ns3)cc(=O)c2c1	-0.17	-2.2
16	Nc1ccc(S(=O)(=O)Nc2ccccc2)cc1S(N)(=O)=O	-7.6	-1.6
17	NC1=NC(c2ccccn2)n2c(nc3ccccc32)N1 (stereo not drawn)	1.6	1
18	C=CCN1C(=O)c2[nH]nc(-c3cc(C)ccc3O)c2C1c1ccc(OC)c(OC)c1 (stereo not drawn)	-1.4	0.31
19	CCCCSc1nn2c(=O)c3ccccc3nc2c(=O)[nH]1	2.2	-1.6
20	CC(=O)N1N=C(c2ccc(Br)cc2)OC1c1cccnc1 (stereo not drawn)	/	0.04
21	CCN(CC)CCn1c(NCc2ccco2)nc2ccccc21	0.02	2.2
22	CCN1CCN(S(=O)(=O)c2ccc3[nH]c(=O)sc3c2)CC1	/	-0.54
23	Clc1ccc(N=Cc2c(-c3ccccc3)nc3n2CCS3)cc1	/	-1
24	Cc1ccc(S(=O)(=O)NC(=O)Nc2ccc(N(C)C)cc2)cc1	/	-0.12
25	Cc1oc(C)c2c(=O)cc(-c3cccs3)cc(OC(=O)c3cccc(Cl)c3)c12	-1.5	-0.59
26	NC1C(c2ccccc2)Nc2ncnn2C1c1ccccc1 (stereo not drawn)	2.8	-1.8
27	CC1=C(C(=O)Nc2cc(C(=O)NCc3cn[nH]c3C)ccc2C)SCCO1	-0.18	/
28	O=C(NCC(c1cccs1)S(=O)(=O)c1ccccc1)C1CC1 (stereo not drawn)	2	/
29	CCCCN1C(C(=O)c2ccccc2)=C(OC(=O)CN2C(=O)CCC2=O)c2ccccc2S1(=O)=O	1.2	-0.93
30	NC(N)=Nc1nc(-c2ccc([N+](=O)[O-])cc2)cs1	/	0.32
31	C#CCn1c(C2CC(=O)N(c3ccc(OCC)cc3)C2)nc2ccccc21 (stereo not drawn)	-0.09	-0.92
32	COC(=O)c1sc2ccccc2c1S(=O)(=O)NCc1ccccn1	-0.12	/
33	Cc1ccc(-c2c(NC3CCCC3)c(=O)c2=O)cc1	0.98	/
34	O=c1ccc(-c2ccc(S(=O)(=O)NCCCN3CCN(c4ccccc4F)CC3)s2)n[nH]1	1	/
35	O=C1C(=O)N(CCCN2CCOCC2)C(c2ccncc2)/C1=C(\O)c1ccccc1 (stereo not drawn)	-1.4	-1.9
36	CCN(CCS(=O)(=O)N1CCNCC1)S(=O)(=O)c1ccc(OC)cc1	1.4	/
37	c1nc(N2CCCC2)c2c3c(sc2n1)CCCC3	0.88	-1.6
38	O=C(c1cc(-c2ccc3c(c2)OCCO3)on1)N(c1ccccc1)c1ccccc1	0.2	-1.5
39	CCc1nnc2c(Nc3ccc(Cl)cc3)nc3ccccc3n12	-0.28	-2.7
40	CC(C(=O)N1CCC(C(N)=O)CC1)n1sc2ccccc2c1=O (stereo not drawn)	2	-0.88
41	N#CC1=C2SCN(Cc3ccco3)CN2C(=O)CC1c1cccs1 (stereo not drawn)	1.2	2.5
42	Cn1c(Cn2cc(C(F)(F)F)ccc2=O)n[nH]c1=S	/	-0.19
43	Cc1noc(/C=C/c2cccs2)c1S(=O)(=O)N1CCC(C(=O)Nc2nccs2)CC1	-0.43	-1.1
44	CN(CCc1ccncc1)C(=O)c1ccc(N2C(=O)CCS2(=O)=O)cc1	0.47	-1.6
45	COc1ccc(C2C3=C(CCCC3=O)Nc3ccc4ncccc4c32)cc1 (stereo not drawn)	/	-0.43
46	CC(C)CC(=O)N1c2ccccc2NC2=C(C(=O)CC(C)(C)C2)C1c1cccs1 (stereo not drawn)	0.82	-0.08
47	CCOCCCNC(=O)C1CCN(C(=O)c2sccc2-n2cccc2)CC1	0.74	1.6
48	Cc1cc(=O)c2c(O)cc(O)c(C)c2o1	1.8	/
49	CSc1cccc(NC(=O)c2nc(-n3cnnc3)ccc2Br)c1	1.1	/
50	Cc1cc(C)cc(-n2c(=O)c3ccccc3n(Cc3cc(=O)n4ccccc4n3)c2=O)c1	0.56	-1.5
51	CC(=O)Nc1cccc(N2CC(O)=C(c3nc4ccccc4c(=O)[nH]3)C2=N)c1	0.01	-2.8
52	COCCNc1ncnc2onc(-c3cc(F)cc(F)c3)c12	1.1	/
53	COc1ccc2[nH]cc(CCNS(=O)(=O)c3ccc(N)cc3)c2c1	0.72	-1.4
54	N/C(=N\O)c1ccc(Oc2ccc(Cl)cc2)nc1	/	-1.4
55	O=C(CCCn1ncn2c(cc3occc32)c1=O)NCC1CCCO1 (stereo not drawn)	/	-1
56	S=c1n(-c2ccccc2)sc(=NC(=Nc2ccccc2)c2ccccc2)n1-c1ccccc1	/	-2.3
57	CCOC(=O)c1c(N)n(-c2ccccc2OC)c2nc3ccccc3nc12	2.2	1.5
58	COc1ccc2nc(NC(=O)C3CCCCC3)sc2c1	/	-0.77
59	COc1cccc(Nc2nc(NCCN3CCOCC3)nc3c2cnn3C)c1	-0.56	/
60	CC(C)CCNC(=O)C1CCN(C(=O)c2sccc2-n2cccc2)CC1	1.5	0.51

Following part:
cpd	Molecule	TAR Tat displ	CDC25B-CDK2 inh
61	CC12CCC(C(=O)N3CCOCC3)(OC1=O)C2(C)C (stereo not drawn)	/	-0.78
62	CCCn1c(CCC(=O)NC(C)CCc2ccco2)nc2cccnc21 (stereo not drawn)	0.13	-3
63	CCc1cc2c3c([nH]c2cc1S(=O)(=O)N(CC)CC)CC(C)(C)CC3=O	0.1	/
64	Cc1ccc(S(=O)(=O)N(CCS(=O)(=O)N2CCNCC2)Cc2ccccc2Cl)cc1C	2.6	/
65	CC(C)c1cccc(C(C)C)c1NS(=O)(=O)c1cccs1	-0.67	-2.5
66	Cc1cc(-c2ccc(C)c(S(=O)(=O)N3CCN(c4cc(Cl)ccc4C)CC3)c2)on1	-0.6	/
67	Oc1ccc2ccccc2c1CN1CCN(Cc2ccccc2)CC1	/	-8.1
68	O=C1CC(c2ccc(F)c(Br)c2)c2cc3c(cc2N1)OCCO3 (stereo not drawn)	-0.88	0.18
69	CCCCCC1=NN(C(=O)C(=O)Nc2ccc(Br)cc2)C(O)(C(F)(F)F)C1 (stereo not drawn)	/	-3.1
70	COC(=O)c1c(SCc2cc(C)ccc2C)[nH]c2ccccc2c1=O	0.5	/
71	COc1ccc(C2CC(=O)C3=C(C2)Nc2ccccc2N(C(=O)C2CC2)C3c2cccnc2)cc1OC (stereo not drawn)	2.2	-0.2
72	CCCCn1cc(S(=O)(=O)c2ccc(OC)cc2)c(=O)c2cc(Cl)ccc21	0.93	-1.1
73	CCc1cc2c3c([nH]c2cc1S(=O)(=O)N(CC)CC)CCCC3=O	2.2	/
74	COc1ccc(-n2nc3c(c2NC(=O)c2ccc(Br)o2)CS(=O)C3)cc1 (stereo not drawn)	/	0.32
75	COc1ccc(Br)c(C(=O)CC#N)c1	/	-2.3
76	CC(C)(C)Sc1ccccc1/C=N/O	/	-2.2
77	COC(=O)c1sccc1S(=O)(=O)Nc1cccc(OC)c1	0.69	/
78	COc1ccc(OC)c(NC(=O)CCS(=O)(=O)c2cc3c(cc2Cl)NC(=O)CO3)c1	3.6	/
79	Cc1cc(C(=O)Nc2ccc(N3CCOCC3)cc2)nn1C	/	-2.6
80	CC(C)(C)Nc1ncnc2c1cnn2-c1ccccc1	-0.39	/
81	Cc1onc(-c2ccccc2Cl)c1C(=O)NNC(=O)CSc1ccccc1[N+](=O)[O-]	/	-1.2
82	CCOc1ccc(-n2ccc(=O)c(C(=O)Nc3nc4ccc(OC)cc4s3)n2)cc1	0.11	0.39
83	C=CCOC(=O)c1sc(N2C(=O)c3oc4ccccc4c(=O)c3C2c2ccco2)nc1C (stereo not drawn)	0.21	-0.01
84	CCOC(=O)c1nnn(-c2nonc2N)c1CSc1nc2ccc(C)cc2[nH]1	/	-0.28

A draw from above in order of molar mass, high to low.
cpd	Molecule	TAR Tat displ	CDC25B-CDK2 inh
71	COc1ccc(C2CC(=O)C3=C(C2)Nc2ccccc2N(C(=O)C2CC2)C3c2cccnc2)cc1OC (stereo not drawn)	2.2	-0.2
81	Cc1onc(-c2ccccc2Cl)c1C(=O)NNC(=O)CSc1ccccc1[N+](=O)[O-]	/	-1.2
1	Cc1ccc(C2CC(=O)Nc3c2c(C)nn3-c2nncc(-c3ccccc3)n2)cc1 (stereo not drawn)	1.2	-0.02
27	CC1=C(C(=O)Nc2cc(C(=O)NCc3cn[nH]c3C)ccc2C)SCCO1	-0.18	/
45	COc1ccc(C2C3=C(CCCC3=O)Nc3ccc4ncccc4c32)cc1 (stereo not drawn)	/	-0.43
9	O=C(Nc1cccc(Cl)c1)c1cn(-c2ccccc2)cn1	0.12	/

Remaining list, next part:
cpd	Molecule	TAR Tat displ	CDC25B-CDK2 inh
85	CC(C)Cc1cc(C(=O)Nc2c(F)cc(F)cc2Br)no1	-0.81	-0.71
86	O=C(OCc1nccn1Cc1ccc(Cl)cc1)c1ccccc1	/	-0.24
87	CCOC(=O)Cn1nnc(-c2ccc(C(F)(F)F)cn2)n1	/	0.18
88	CC(=O)NC1=NC(=O)/C(=C\c2cccs2)N1C	/	1.2
89	c1ccc(-c2nn3c(Cn4cnc5ccccc54)nnc3s2)cc1	3.1	-1.3
90	CC(C)c1cccc(O)c(=O)c1	1.2	/
91	Clc1ccc2nc(N3CCN(c4ccccn4)CC3)c3nncn3c2c1	-2.1	-1.7
92	CCCCCCn1c(CN2CCCCC2C)nc2c1c(=O)n(C)c(=O)n2C (stereo not drawn)	1.1	-1.2
93	CCC(C(=O)NCCCN(CC)CC)n1nc(C)c2sc3ccccc3c2c1=O (stereo not drawn)	2.8	-2.6
94	C=CCN1C(=O)/C(=C2/Sc3ccc(OC)cc3N2CC)SC1=Nc1cc(C#N)ccc1NCC	/	-1
95	CSc1nc(N)nc(C23CC4CC(CC(C4)C2)C3)n1	/	-2.5
96	CN(C)c1ccc(-c2noc(-c3ccccc3O)n2)cc1	/	-4.2
97	O=S(=O)(c1ccc(Br)cc1)N1CCCC(c2nc(-c3ccc4c(c3)OCO4)no2)C1 (stereo not drawn)	1.4	/
98	Cc1onc(C(=O)N2CCN(C(c3ccccc3)c3ccccc3)CC2)c1[N+](=O)[O-]	/	-1.2
99	Cc1nc2c(c(C)nn2C(C)(C)C)c(C)c1CCC(=O)N1CCC(N2CCCCC2)CC1	-0.21	-2.5
100	CCCCNc1cc(C)nc2c(-c3ccc(F)cc3)c(C)nn12	0.52	0.17
101	CCOC(=O)C1CCCN(c2c(NCCC(C)C)c(=O)c2=O)C1 (stereo not drawn)	1.5	-0.81
102	COc1cc(O)ccc1C1Nc2c(C)cc(C)cc2-c2cc(C)nn21 (stereo not drawn)	0.81	-0.78
103	CC(C)Cn1cc(NC(=O)N(C)c2cccc(Cl)c2)c2ccccc2c1=O	1.3	/
104	CCOC(=O)CSCN1CCCCC1	/	-2
105	CCOC(=O)N1CCN(C(=S)Nc2ccc3nc(-c4ccccc4)c(-c4ccccc4)nc3c2)CC1	/	-3.1
106	CCOC(=O)c1sc(Nc2ccccc2)c(-c2nc3ccccc3[nH]2)c1N	/	-3.6
107	CC(Sc1n[nH]c(=O)[nH]c1=O)C(=O)OCc1ccccc1 (stereo not drawn)	2	0.39
108	O=C(CCCc1ccccc1)Nc1nnc2n1CCS2	0.82	/
109	COC(=O)c1nnn(CC(=O)Nc2ccc(Br)cc2F)c1C(=O)OC	1.6	-1.6
110	O=C(NCc1cccs1)c1ccc(CS(=O)c2ccc(Br)cc2)o1 (stereo not drawn)	1.1	-0.64
111	CCC(Sc1ccc2nnc(-c3ccc(OC)c(OC)c3)n2n1)C(=O)OC (stereo not drawn)	/	-1.8
112	O=C(CSc1ncnc2c1nnn2Cc1ccc(F)cc1)NCC1CCCO1 (stereo not drawn)	/	-0.74

Bioassay records deposited in PubChem by Center for Chemical Genomics, University of Michigan.
